# Screening results from PubChem.
# HPGD block: blocks human HPGD enzyme activity | P15428 | purified HPGD, NADH fluorescence kinetic, PGE2 substrate | Potency, µM, inactives show at the highest dose activity change, negative = inhibition, actives largely listed as inhibitors | 150,000 compounds, 4.3% hits | AID 894; active = well fitted inhibition curve with a large enough effect (not every such curve was filed as active); inconclusive = small, poorly fitted or top-dose-only effect, or another doubt; inactive = no such curve, though single readings can be large or run the other way;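 further: top concentration of the series not given in the record; plate controls included wells without enzyme; inactives centre near -10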
# Target sequence (P15428 whole entry, looked up): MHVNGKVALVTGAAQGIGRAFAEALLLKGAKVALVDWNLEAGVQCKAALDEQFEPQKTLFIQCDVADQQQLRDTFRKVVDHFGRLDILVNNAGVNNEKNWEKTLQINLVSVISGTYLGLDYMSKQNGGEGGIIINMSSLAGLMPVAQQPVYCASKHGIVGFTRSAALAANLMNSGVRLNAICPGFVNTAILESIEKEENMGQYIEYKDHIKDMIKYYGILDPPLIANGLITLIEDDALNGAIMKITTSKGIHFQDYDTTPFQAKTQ
#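 NADH formation kinetics: reaction with 30 uM PGE2 and 1 mM NAD+ (final), 20 nM enzyme, Tris-HCl pH 8 with Tween 20, after 15 min compound preincubation at room temperature. Fluorescence change, last versus first of five reads.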
# Active calls of the source: *; u = inconclusive; & = joins results of further samples. On the % scale 0 is the no-effect control and ±100 the full control effect; potency means the concentration at half of the fitted maximal effect.
HPGD block | SMILES
-4% | O=C(c1cnc2n(c1=O)CCS2)N1CCN(c2ccccc2F)CC1
-11% | Cc1ccc(N(CC(=O)NCCc2ccccc2)S(=O)(=O)c2c(C)noc2C)cc1
-11% | O=C1c2ccccc2C2=Nc3ccccc3SC(c3cccc(F)c3)C12 (stereo not given)
-4% | COC(=O)[C@@]1(Cc2ccccc2)[C@H]2c3cc(C(=O)N4CCCC4)n(Cc4ccc(S(C)(=O)=O)cc4)c3C[C@H]2CN1C(=O)c1ccccc1
-5% | O=c1c2ccccc2nnn1CSc1nnnn1-c1ccccc1
-23% | Cc1sc2nc(SCC(=O)Nc3c(C)n(C)n(-c4ccccc4)c3=O)n(C)c(=O)c2c1C
2% | C=CCN1CCc2c(cc(O)c(O)c2Cl)C(c2ccccc2)C1 (stereo not given)
-2% | CCOC(=O)C1CCN(C(=O)Cn2cc(C#N)c3ccccc32)CC1

# Other entries
HPGD block | SMILES
-20% | N#Cc1nc(COc2ccc(Br)cc2)oc1N1CCCC1
-7% | COc1nc(-c2ccccc2)c2c(c1C#N)CC(C)(C)OC2
u | CSc1nc(NCC(C)C)c2c3c(sc2n1)CN(C)CC3
4% | CCCC(=O)NC(C)C(c1cccs1)N1CCN(c2ccccc2)CC1 (stereo not given)
-10% | CCc1ccc(C(=O)N2CCC(c3nc4ccccc4s3)CC2)cc1
14µM* | Cc1ccc(SCCC(=O)N2CCCC2)cc1
-16% | Cc1ccc(-n2c(C)cc(C(=O)CSc3nnc4ccccn34)c2C)cc1
1% | Cc1nc(NC(=O)CN(C)S(=O)(=O)c2ccc(Cl)cc2)sc1C

# The list continues.
HPGD block | SMILES
-15% | COc1ccccc1C(=O)N1CCN=C1SCc1cccnc1
-23% | O=C(N/N=C/c1ccccc1O)c1cccc(C(F)(F)F)c1
-6% | Cc1cccc(NCN2C(=O)c3ccccc3C2=O)c1
4% | CCCS(=O)(=O)N1CCCC(C(=O)NCCCN2CCN(c3ccc(F)cc3)CC2)C1 (stereo not given)
-8% | O=C(Cc1csc(N2CCOCC2)n1)N/N=C/c1ccc(F)cc1
-15% | CCn1ncc(Br)c1C(=O)Nc1ccc(F)c([N+](=O)[O-])c1
-9% | CCOC(=O)COc1ccc(S(=O)(=O)NCc2ccncc2)cc1
1% | CCOC(=O)[C@H](CCc1ccccc1)N[C@@H](C)C(=O)N1[C@H](C(=O)O)C[C@H]2CCC[C@@H]21

# (further entries)
HPGD block | SMILES
-14% | Nc1nc(NCCc2ccc(O)cc2)nc2nc(-c3ccco3)nn12
-3% | CCCCC(C(=O)O)C(C)CC(=O)Nc1ccn(-c2ccccc2)n1 (stereo not given)
-16% | O=c1c2c3c(sc2n(CCN2CCCCC2)c(=O)n1Cc1ccco1)CCCCC3
-18% | N#C/C(=C\Nc1ccc2c(c1)OCCO2)c1nc2ccccc2[nH]1
-12% | COc1cccc(C2C(C(=O)OC(C)C)=C(C)Nc3ncnn32)c1 (stereo not given)
u | O=C(CS(=O)c1ccc(C(F)(F)F)cc1[N+](=O)[O-])Oc1ccccc1 (stereo not given)
-14% | CCCc1cc(C(=O)N/N=C/c2ccc(CC)s2)c2ccccc2n1
-27% | Cc1ccc(-c2nc3ccccc3c(C(=O)NCc3cccs3)c2C)cc1

# New compounds follow.
HPGD block | SMILES
-11% | CCOC(=O)C1CCN(C(C(=O)Nc2ccc3c(c2)OCCO3)c2ccccc2)CC1 (stereo not given)
-23%&-16% | O=C1c2c(O)cccc2Cc2cccc(O)c21
-16% | COc1ccc(C(=O)/C=C/c2cccs2)c(OC(=O)N2CCOCC2)c1
-16% | NC(=O)C1CCN(C(=O)CN2CCc3ccccc32)CC1
-7% | CCN(CC)S(=O)(=O)c1ccc(NC(=O)Cn2c(=O)oc3ccccc32)cc1
u | CC1C=CCC2C(=O)N(c3cccc(C(=O)N4CCN(c5ccc(F)cc5)CC4)c3)C(=O)C12 (stereo not given)
-15% | Cc1ccc(C)c(S(=O)(=O)C(C#N)c2nc3ccccc3nc2N2CC(C)OC(C)C2)c1 (stereo not given)
-8% | CC1CCN(S(=O)(=O)N2CCC(C(=O)NCCN3CCOCC3)CC2)CC1

# More entries:
HPGD block | SMILES
-26% | Cc1ccc(C(C)C)c(OCCn2c(=O)oc3ccccc32)c1
-10% | Cc1ccc(NCCC(=O)c2cccc([N+](=O)[O-])c2)cc1
-18% | COc1ccc(OC)c(NC=C2C(=O)OC(C)(C)OC2=O)c1
-21% | C=CCOc1ccc2c(c1)c(S(=O)(=O)c1ccc(C)cc1)cn2COC
-7% | CCN(C(=O)COC(=O)c1cccnc1Nc1ccccc1F)C1CCS(=O)(=O)C1 (stereo not given)
u | Cc1nn(CCc2nc(-c3ccco3)cs2)c2[nH]c(=O)cc(C(F)(F)F)c12
-7% | CN1CCc2ccccc2C1C1CCNCC1 (stereo not given)
-4% | O=C1CC(N2CCOCC2)C(=O)N1c1cccc(Cl)c1 (stereo not given)

# Other structures.
HPGD block | SMILES
u | Cc1cnc(CNc2ncnc3ccc(-c4ccccc4CN(C)C)cc23)cn1
-10% | NC(=O)CSc1nnnn1-c1cccc(Cl)c1
-12% | CSc1nc(Oc2ccc(F)cc2)c2ccccc2n1
-10% | CN1C(=O)/C(=C2\SC(N3CCCCCC3)=NC2=O)c2ccccc21
-6% | CCOc1ccc(C(=O)NCC(c2cccs2)N(C)C)cc1OCC (stereo not given)
7.1µM* | CCN(CC)S(=O)(=O)c1ccc2oc(C(=O)N3CCCCCC3)c(C)c2c1
-17% | O=C(Oc1cc(=O)oc2ccccc12)c1cccnc1Cl
-23% | CC(=O)c1ccc(-c2ccc(-c3cc(=O)oc4c(C(C)C)ccc(C)c34)cc2)cc1

# Next entries.
HPGD block | SMILES
-6% | CCCCNC(=O)CSc1nnc(-c2c[nH]c3ccccc23)n1CC1CCCO1 (stereo not given)
0% | COc1cccc(-n2c(C)nc3c(cnn3-c3ccc(Cl)cc3)c2=O)c1
-5% | Cc1cc(=O)n2nc(N3CCCC(C(=O)NC(C)c4ccccc4)C3)sc2n1 (stereo not given)
-16% | COc1ccc(S(=O)(=O)N2CCCC2C(=O)Nc2nccs2)cc1 (stereo not given)
u | CC(C)OCCCn1c(=N)c(C(N)=S)cc2c(=O)n3ccccc3nc21
-8% | COc1ccc(C2N(Cc3ccccc3)CC(=O)N2/N=C(\C)c2ccccc2)cc1 (stereo not given)
-2% | CN(C)CCCCOc1ccccc1-c1ccccc1
-13% | S=c1[nH]nc(-c2cccnc2)n1C1CCCCC1

# (list continues)
HPGD block | SMILES
-6% | CCCC(c1nnnn1C(C)(C)CC)N(CCCO)Cc1cc2cc(C)cc(C)c2[nH]c1=O (stereo not given)
u | COc1ccc(-c2nc3ccccn3c2/N=C/c2ccc(OC)c(OC)c2)cc1O
-5% | CC(C)(C)C(=O)NC(C(N)=O)=C(Cl)Cl
-12% | Cc1cc(=O)oc2c(N)c(O)ccc12
3% | O=C(NCc1ccccc1)c1ccc(S(=O)(=O)N2CCCC2)cc1
-12% | COC(=O)Cn1c(C)nc2ccccc21
-9% | CCC(=O)n1nc(-c2ccc(OC)cc2)nc1N
-19% | COc1cc(-c2c(C#N)c(N)nc3c2CCCC3)cc(OC)c1OC

# Given as tab-separated lines: 7 of the compounds above.
Compound	HPGD block
CCCC(c1nnnn1C(C)(C)CC)N(CCCO)Cc1cc2cc(C)cc(C)c2[nH]c1=O (stereo not given)	-6%
COc1ccc(-c2nc3ccccn3c2/N=C/c2ccc(OC)c(OC)c2)cc1O	u
O=C(NCc1ccccc1)c1ccc(S(=O)(=O)N2CCCC2)cc1	3%
CC(C)(C)C(=O)NC(C(N)=O)=C(Cl)Cl	-5%
COC(=O)Cn1c(C)nc2ccccc21	-12%
COc1cc(-c2c(C#N)c(N)nc3c2CCCC3)cc(OC)c1OC	-19%
Cc1cc(=O)oc2c(N)c(O)ccc12	-12%

# The results go on:
HPGD block | SMILES
-9% | CCOc1ccc(-c2nnn(CC(=O)Nc3cc(OC)ccc3OC)n2)cc1OCC
-2% | COC(=O)C(NC(=O)c1ccc(F)cc1)(Nc1nc(C)cs1)C(F)(F)F (stereo not given)
-1% | Cn1cc(C(=O)N2CCc3ccccc3C2)c(=O)c2cc(S(=O)(=O)N3CCCCC3)ccc21
-9% | CCN(CC)C(=O)Cn1cnc2sc(C(=O)N3CCN(c4ccc(OC)cc4)CC3)c(C)c2c1=O
u | O=C(O)CCC(NC(=O)c1cncc(O)c1)C(=O)O (stereo not given)
-12% | COCCn1nnnc1C(c1cc2ccc(OC)cc2[nH]c1=O)N1CCc2ccccc2C1 (stereo not given)
-4% | COc1ccc(F)cc1S(=O)(=O)Nc1cccc(C(=O)O)c1
-4% | C=CCn1c(Sc2ccccc2)nc2c1c(=O)[nH]c(=O)n2C

# Other structures:
HPGD block | SMILES
u | CN(C)CCCNS(=O)(=O)c1ccc(N2CCC(c3ccc(Cl)cc3)=N2)cc1
-2% | CC1=C(C(N)=O)C(c2ccccn2)n2nc(SCc3ccccc3Cl)nc2N1 (stereo not given)
-6% | Cc1ccc(OCCn2cc(C#N)c3ccccc32)cc1
u | Cc1ccc2nc(SCc3cccc([N+](=O)[O-])c3)nc(C)c2c1
0% | O=C(NCc1cccnc1)C(=O)NCC1OCCCN1S(=O)(=O)c1ccccc1 (stereo not given)
-25% | COC(=O)c1ccccc1NC(=O)n1cc(C)cn1
-26% | COc1ccc2ccccc2c1/C=N/NC(=S)Nc1cc(S(=O)(=O)N2CCOCC2)ccc1N1CCOCC1
-10% | COC(=O)c1cc(COc2ccc3c4c(c(=O)oc3c2)CCC4)c(C)o1

# Continued.
HPGD block | SMILES
u | CCCc1cc(=O)n2c(nc3ccccc32)[nH]1
u | Cc1cc(C)c2cc(C#N)c(NCCOC(=O)c3ccccc3C)nc2c1
u | O=C(Nc1ccc(-c2nc3cc(NC(=O)c4cccs4)ccc3o2)cc1)c1cccs1
-2% | CC1=CC(C)(C)[N+](C)=CN1c1ccccc1
-20% | CCOc1ccc(Cl)cc1/C=N/NC(=O)c1ccccc1
-10% | N#CCCN(C(=O)CN1C(=O)NC2(CCCC2)C1=O)c1ccccc1F
-1% | CC(=O)C1(C)OC(N)=C(C#N)C(c2ccccc2)C1(C#N)C#N (stereo not given)
-24% | C/C(=N\Nc1nc(-c2ccccc2)cs1)c1cccs1

# (listing goes on)
HPGD block | SMILES
-8% | Cc1cc(C(=O)NCc2ccc(S(N)(=O)=O)cc2)cs1
-8% | COC(=O)c1ccc(C2/C(=C(/O)c3ccc(OC)cc3)C(=O)C(=O)N2CC2CCCO2)cc1 (stereo not given)
-7% | CCc1cccc(C)c1NC(=S)NCC(c1cccnc1)N1CCOCC1 (stereo not given)
u | COc1ccc(/C=N/NC(=O)COc2cccc3ccccc23)c(C(=O)O)c1OC
-15% | Cn1c(=O)c2c(ncn2Cc2cccc(Cl)c2)n(C)c1=O
-27% | C=CCn1c(CCNC(=O)c2cccs2)n[nH]c1=S
-21% | N#Cc1cc2c(nc1SCc1ccccc1)CCCC2
-10% | Cc1cc(C)nc(SCC(=O)N/N=C/c2cccn2-c2ccc(O)cc2)n1

# Going on with the list:
HPGD block | SMILES
-17% | COc1ccc(C(=O)c2coc3ccc(O)c(CN4CCCCC4)c23)cc1
-14% | O=C(Cc1ccc(-n2c(=O)c3ccccc3n(Cc3cccc([N+](=O)[O-])c3)c2=O)cc1)NCC1CCCO1 (stereo not given)
-10% | CCC1=C2CC[C@H]3C(=O)NC(=O)[C@H]3[C@H]2[C@@]2(C)C(=NCC3CC3)OC(=O)N2C1=O
u | S=c1[nH]ncn1/N=C/c1ccc(N2CCOCC2)cc1
1% | Cc1ccc(-c2c(C)n([O-])c3c([n+]2=O)CCCCC3)cc1
u | Cc1ccc(S(=O)(=O)N=C2SCCCS2)cc1
-8% | COc1ccc(OC)c(NC(=O)CS(=O)(=O)Cc2nc(-c3ccccc3C)oc2C)c1
-8% | CCOC(=O)N1CCN(C(=O)c2ccccc2NC(=O)c2ccc(C(C)(C)C)cc2)CC1

# A different layout for part of the listing above.
Molecule: Cc1ccc(S(=O)(=O)N=C2SCCCS2)cc1
- HPGD block: u
Molecule: COc1ccc(OC)c(NC(=O)CS(=O)(=O)Cc2nc(-c3ccccc3C)oc2C)c1
- HPGD block: -8%

# (listing goes on)
HPGD block | SMILES
-20% | COc1ccc(C2C(C#N)=C(/N=C/N3CCN(C)CC3)OC3=C2C(=O)CC(C)(C)C3)cc1OC (stereo not given)
-9% | CC1CCN(C(=O)CSc2nc3c(cnn3-c3ccc(Cl)cc3)c(=O)[nH]2)CC1
-1% | C=CCOc1ccc(/C=N/NC(=O)C(=O)Nc2ccccn2)cc1OC
-3% | Cc1nnc(SCC(=O)c2ccccc2)n1Cc1ccccc1
-23% | CC(C)CNC(=O)c1c(N)n(/N=C/c2cccnc2)c2nc3ccccc3nc12
-24% | CCC(CC)c1nc(C#N)c(NCc2ccccc2)o1
-7% | CC1CCCC(NC(=O)c2ccc3c(c2)N(Cc2ccccc2)C(=O)CS3=O)C1C (stereo not given)
-3% | CC(=O)Nc1ccc(-c2nnc(SCc3ccccc3C#N)n2C)cc1

# (next part)
HPGD block | SMILES
4% | C/C(=N\NC(=O)CN1CCN(S(=O)(=O)c2ccc(C)cc2)CC1)c1cccnc1
12% | Cc1ccc(Oc2nc(-c3ccccc3)ncc2S(=O)(=O)c2ccc(C)cc2)cc1
-8% | O=C(/C=C/c1cccc(Cl)c1)N1CCC(Cc2ccccc2)CC1
-2% | Cc1onc(-c2c(F)cccc2Cl)c1C(=O)N1CCCc2ccccc21
2% | COc1ccc(S(=O)(=O)N(CC(=O)NCc2ccco2)c2ccccc2)cc1OC
-18% | Cc1ccccc1N1CCN(c2ncnc3scc(-c4cccs4)c23)CC1
-6% | CCOC(=O)C1(C)C=C(Nc2ccc(O)cc2)C(=O)N1c1ccc(O)cc1 (stereo not given)
-14% | COc1ccc(-c2cc(C(=O)Nc3c(C)nn(Cc4ccc(Cl)cc4)c3C)no2)cc1

# These rows are one share of the data; count on the stated rates, not on these rows.
